High-throughput results deposited in PubChem by National Center for Advancing Translational Sciences (NCATS).
TRPML1 agonist – human mucolipin-1 channel agonism; activation, % (concentration not given with the values); actives 0.12% (n = 410,000); TRPML1-expressing cells, Ca2+ dye fluorescence, FDSS; host cell line not named in the record; reference of the full effect not given here; Q9GZU1; in the data active = activation above about 50%; inconclusive = about 30% to 50%; inactive = below about 30%; further: 0% is about no effect; the text of the record puts the active cut at 80%
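Agonist activity was taken from a 110 s kinetic Ca2+ dye read on the FDSS after pinning compounds onto TRPML1-DL cells. The cells were seeded at 1,500/well with Tet inducer, incubated about 16 h, then dye-loaded at room temperature.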
TRPML1 blocker – human mucolipin-1 channel inhibition. Q9GZU1. TRPML1-inducible cells, Ca2+ dye fluorescence, FDSS; hits give low values; inhibition of EC80 agonist-evoked calcium signal. activity change, negative = inhibition, % (concentration not given with the values). actives 0.02% (n = 390,000); in the data active means activity change below about -50%; inconclusive means about -30% to -50%; inactive means above about -30%;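 further: stimulus is agonist 54-4 at its EC80 concentration; on the % scale 0 is the no-effect control and ±100 the full control effect; compound concentration not given in the record; the text of the record puts the active cut at -80%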
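TRPML1-DL cells, Tet-induced overnight (~16 h, 37 °C) at 1,500 cells/well, were loaded with Ca8 no-wash dye plus quencher for 45-90 min at room temperature. Compounds were pinned during FDSS kinetic reading; agonist 54-4 at EC80 (4 uM final) then added.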
TRPV1 potentiator – human TRPV1 potentiation | TRPV1-expressing cells, Fluo-8 calcium influx, capsaicin EC20 potentiation; host cell line not named in the record; control for the full effect not named in the record | potentiation, % at 8.33 µM | actives 0.02% (n = 320,000) | AID 540277; active means potentiation above 80%; inconclusive means 30% to 80%; inactive means below 30%; further: 0% is about no effect
Target sequence (Q8NER1 whole entry, looked up): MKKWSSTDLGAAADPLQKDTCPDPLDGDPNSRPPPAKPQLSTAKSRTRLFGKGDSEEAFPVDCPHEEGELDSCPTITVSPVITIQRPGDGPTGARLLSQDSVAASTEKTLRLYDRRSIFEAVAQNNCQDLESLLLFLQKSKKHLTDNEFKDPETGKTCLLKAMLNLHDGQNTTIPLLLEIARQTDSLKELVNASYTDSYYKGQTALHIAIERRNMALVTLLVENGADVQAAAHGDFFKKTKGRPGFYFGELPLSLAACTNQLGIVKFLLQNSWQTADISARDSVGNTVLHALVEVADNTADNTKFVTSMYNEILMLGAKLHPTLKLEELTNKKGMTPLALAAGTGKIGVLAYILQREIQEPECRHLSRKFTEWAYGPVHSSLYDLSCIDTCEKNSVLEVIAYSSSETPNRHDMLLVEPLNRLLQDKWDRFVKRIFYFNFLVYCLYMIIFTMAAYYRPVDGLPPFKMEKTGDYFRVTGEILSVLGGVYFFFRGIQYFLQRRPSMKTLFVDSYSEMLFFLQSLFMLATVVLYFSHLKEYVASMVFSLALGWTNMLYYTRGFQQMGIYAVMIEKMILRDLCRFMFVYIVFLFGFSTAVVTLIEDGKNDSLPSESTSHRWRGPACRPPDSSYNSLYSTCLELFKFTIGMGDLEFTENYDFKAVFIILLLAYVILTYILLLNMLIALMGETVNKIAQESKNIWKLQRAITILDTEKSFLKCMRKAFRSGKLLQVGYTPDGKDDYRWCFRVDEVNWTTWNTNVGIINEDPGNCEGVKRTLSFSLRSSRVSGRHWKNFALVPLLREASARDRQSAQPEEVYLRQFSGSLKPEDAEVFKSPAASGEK
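Fluo-8 calcium influx in TRPV1-expressing cells, kinetic read (ex 480/em 520 nm). Compound added and read 3 min for agonist activity, followed by capsaicin at EC20 final and 2 min further read for enhancement.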
Six1-Eya2 inh – blocks human Six1 binding to Eya2. AlphaScreen GST-Six1/His-Eya2 binding, biochemical; hits give low values; control for the full effect not named in the record. activity change, % (concentration not given with the values). actives 0.56% (n = 360,000); in the data active = activity change below about -65%; inconclusive = about -30% to -65%; inactive = above about -30%; further: on the % scale 0 is the no-effect control and ±100 the full control effect
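Six1/Eya2 binding was read as AlphaScreen signal after compounds were pinned into GST-Six1 plus His-tagged Eya2 (5X stock 250/500 nM) in pH 8.0 Tris/NaCl/TCEP buffer, beads added, then incubated 1 h, 37 C, dark.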
CtBP-E1A blk – blocks the CtBP interaction with E1A | actives 0.49% (n = 340,000) | AlphaScreen GST-E1A/His-CtBP binding, 1536-well; hits give low values; control for the full effect not named in the record | activity change, % (no concentration beside the values); in the data active means activity change below about -65%; inconclusive means about -30% to -65%; inactive means above about -30%; further: on the % scale 0 is the no-effect control and ±100 the full control effect; compound concentration not given in the record
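Homogeneous bead-based format: GST-tagged E1A captured on glutathione donor beads, His-tagged CtBP on nickel acceptor beads; compounds precede bead addition by 2 h at 37 °C.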
D2 PAM – positive allosteric modulators of human D2 dopamine receptor; actives 0.23% (n = 360,000); AID 624464; DiscoveRx D2 beta-arrestin cells, luminescence, 90 min; 100% = 57 uM dopamine signal; potentiation, % (concentration not given with the values); P14416; active = potentiation of 50% or more; inconclusive = 30% to 50%; inactive = 30% or less;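 further: compound concentration not given in the record; tested on top of an EC20 dose of dopamine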
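PathHunter D2 cells, attached overnight at 37 deg C, received compound in DMSO plus dopamine at EC20 (50 nM final) for 90 min at 37 deg C. Beta-arrestin recruitment was read as luminescence after 1 h with detection reagent at ambient temperature.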
An asterisk follows results filed as active; ? = inconclusive; . = not tested or not shown; & = joins results of further samples. Rows were taken by chance. Share with any hit: about 0.95%.

Every second line gives: TRPML1 agonist	TRPML1 blocker	TRPV1 potentiator	Six1-Eya2 inh	CtBP-E1A blk	D2 PAM
1) O=C(CCNC(=O)C1CCN(S(=O)(=O)c2ccc(F)cc2)CC1)NCc1ccccc1
  -0.7	0	-3	1	4	3
2) CCCCOc1ccc(NC(=O)[C@@H]2CCCN2C(=O)C2CCN(S(=O)(=O)c3ccc(C)cc3)CC2)cc1
  0.7	-7	-4	13	0	1
3) CCOC(=O)c1ccccc1-c1cn2cc(Cl)ccc2n1
  0.2	-15	28	8	-1	-10
4) COc1ccc(OC)c(-c2csc(NC(=O)C3=NNC(=O)CC3)n2)c1
  0.8	2	-15	-23	-10	9
5) COc1ccc(C(=O)N2[C@@H](C(C)C)COc3cc(Br)ccc3S2(=O)=O)cc1
  -0.4	11	.	2	0	-6
6) CC(=O)c1cccc(Nc2ccc(Br)cc2)c1
  -0.8	.	.	3	7	4
7) COC(=O)C1=C(C)N=C2SC(C#N)=C(N)N2C1c1cccc(OC)c1 (centres undefined)
  0.7	10	13	-4	1	-3
8) COc1ccccc1NC(=O)c1cnc2c(-c3ccccc3)c(C)nn2c1C
  3.2	34	0	18	7	-13
9) CCOc1cc2[nH]c(=S)n(Cc3ccc(C(=O)O)cc3)c(=O)c2cc1OCC
  -0.7	0	2	-9	-8	-34
10) COC(=O)C1=C(CS(=O)(=O)c2ccc(Cl)cc2)NC(=O)NC1c1ccc(O)c(OC)c1 (centres undefined)
  -0.4	8	4	-3	-2	3
11) Cc1cc(C(=O)OCc2nc3ccccc3s2)c(C)o1
  3.7	21	0	14	-10	2
12) CC1Cc2ccccc2N1C(=O)C1CCCCN1S(=O)(=O)c1ccccc1 (centres undefined)
  0.1	3	-9	0	4	-8
13) CCc1ccccc1NC(=O)CCc1nc(-c2cccs2)no1
  4.5	12	-12	1	7	1
14) COC(=O)c1ccc(CS(=O)(=O)c2ccccc2C)o1
  -0.1	13	27	2	2	3
15) CNC(=O)N(C1=NCC(C)(C)S1)c1ccc(F)c(Cl)c1
  0.0	31	-2	2	8	-5
16) Cc1nc([N+](=O)[O-])cn1CC(=O)c1ccc(OC(F)(F)F)cc1
  0.6	0	-6	10	1	0
17) COCCCC1CCN(C(=O)C2CCC(=O)N(C3CCCC3)C2)CC1 (centres undefined)
  0.4	50	1	17	2	-6
18) CCOC1(OCC)C(c2ccc(Cl)cc2)C(C#N)(C#N)C1(OCC)OCC (centres undefined)
  0.3	3	-10	-1	4	-8
19) COCCNc1nc(Oc2cncc(Cl)c2)c2sccc2n1
  0.1	.	.	-1	-1	-5
20) COc1ccc(CCNC(=O)C2CCN(S(=O)(=O)c3cc(OC)ccc3OC)CC2)cc1
  -1.6	-12	-16	3	5	-13
21) O=C(Nc1ccc2c(c1)OCCO2)c1cnc2n(c1=O)CCS2
  -1.2	41	-2	-2	-2	-5
22) CC(=O)Nc1cncc(-c2cccc(C(=O)NCCN(C)C)c2)n1
  0.8	9	.	10	-2	-11
23) COc1cc2c(cc1OC)C(C)N(C(=O)/C=C/c1cc(OC)c(OC)c(OC)c1)CC2 (centres undefined)
  2.9	-7	-8	-24	-17	-4
24) CSc1nsc(SCC(=O)Nc2ccccc2C(N)=O)n1
  -0.5	-5	2	12	0	-8
25) O=C(NCCCNC(=O)c1ccccc1)c1ccccc1
  0.3	3	.	4	0	-21
26) Cc1ccc(C)c(NC(=O)C2(C)CC3c4ccccc4C2c2ccccc23)c1 (centres undefined)
  0.5	-12	.	2	2	9
27) CC(=O)c1ccc(N(C(=O)c2ccco2)C(C(=O)NC2CCCC2)c2cccs2)cc1 (centres undefined)
  0.2	-8	1	7	22	3
28) C/C(=N\NC(=O)c1ccccc1F)c1cccc(NC(=O)c2ccccc2)c1
  0.6	-1	7	-4	3	14
29) CCCCc1nc2ccccc2n1CC(=O)NN
  0.2	-16	-3	4	3	-6
30) Cc1[nH]c(=O)c(C#N)c(C)c1CCC(=O)NCc1ccc(Cl)cc1
  0.2	-9	-6	48	4	4
31) CCOC(=O)N1CCN(C(=O)c2ccc(CSc3ccc(Cl)cc3)cc2)CC1
  0.4	-6	-7	-5	-1	-5
32) O=C(NCc1cccs1)C1CCN(S(=O)(=O)c2cccc([N+](=O)[O-])c2)CC1
  -0.1	4	-2	8	1	9
33) Cc1ccc(CC(=O)N2CCN(c3ccccn3)CC2)cc1
  0.1	-14	-4	6	-1	-8
34) CN(C)c1ncnc2c1ncn2[C@H]1CN(Cc2cccnc2)C[C@@H](CO)O1
  -0.7	.	.	-2	-11	-4
35) Cc1ccc2oc3nc(C)c(C(=O)O)cc3c(=O)c2c1
  -0.8	1	18	-1	3	-26
36) Cc1ccccc1NC(=O)Cc1nc(COC(=O)C(C)C)cs1
  0.6	18	8	0	0	-6
37) COc1ccccc1NC(=O)CC12CC3CC(CC(Br)(C3)C1)C2
  -0.4	-18	3	0	-5	-4
38) C=C(C)CN(CC)C(=O)COc1ccc(S(=O)(=O)Nc2ccc(OC)cc2)cc1
  16	-8	-3	-1	2	-3
39) COC(=O)c1cccc(C23CC4(C2)[C@H](CN(C)[C@@H]4c2ccccc2)C3c2ccc(C(F)(F)F)cc2)c1 (some centres undefined)
  0.6	12	?	-7	.	0
40) FC(F)(F)c1cnc(Oc2ccccc2-c2nnco2)c(Cl)c1
  0.8	14	-8	9	1	0
41) COc1ccc(OCc2nnc3n2N=C(c2ccccc2)C(CC(=O)O)S3)cc1 (centres undefined)
  0.2	0	10	3	2	-3
42) O=C(O)CCCC(=O)N1CCCC1
  0.7	-6	?	10	2	-11
43) CC(C)NC(=O)C(c1ccc(F)cc1)N(C(=O)CCC(=O)Nc1ccccn1)C1CCCC1 (centres undefined)
  -0.1	8	-3	-9	0	-5
44) O=C(OCN1C(=O)c2ccccc2C1=O)c1cccc(OC(F)F)c1
  2.2	21	4	8	4	-9
45) COc1ccc(S(=O)(=O)NCC(c2ccc(F)cc2)N2CCOCC2)cc1Br (centres undefined)
  1.8	-21	27	0	1	-33
46) Cc1cc(C)nc(NC(C)(C)C(=O)O)n1
  0.1	-6	-2	3	.	-6
47) Cc1ccc(N=Cc2c(O)c3ccccc3oc2=O)c(C)c1
  .	.	5	4	.	3
48) CCOC(=O)C1(C)CCCN1C(=O)c1snnc1C (centres undefined)
  -0.7	.	.	24	3	-4
49) O=C(CN1CCCC1)Nc1ccc(Br)cc1
  0.7	4	0	6	.	-3
50) OCC[C@@H]1C[C@H](O)[C@@H](O)[C@@]2(OCCCc3ccccc32)O1
  -0.4	-19	12	4	5	-6
51) COc1cccc(-c2n[nH]nc2C2=CC(=O)CC(C)(C)C2)c1
  0.1	-16	.	5	2	7
52) Nn1c(SC/C=C/c2ccccc2)nnc1-c1ccccn1
  0.4	4	2	-75*	-78*	5
53) COc1ccc(CCNC(=O)c2cc(-c3ccccc3)c(N3CCOCC3)s2)cc1OC
  1.5	6	.	-25	-11	-2
54) C[C@H](CO)N1C[C@H](C)[C@@H](CN(C)S(=O)(=O)c2cn(C)cn2)Oc2ccc(NC(=O)Cc3ccccc3)cc2C1=O
  -0.2	2	.	1	6	-5
55) COc1ccc(NCCc2ccccn2)cc1
  .	.	-27	-2	.	5
56) O=S(=O)(Nc1ccc2[nH]ncc2c1)c1ccccc1Cl
  -0.4	-2	6	4	3	-4
57) C#CCOC(=O)c1csc2nnsc12
  0.2	9	6	2	12	4
58) CNc1nc(N)c([N+](=O)[O-])c(N2CCCCCC2)n1
  0.7	-2	-9	-1	-13	-11
59) O=S(=O)(c1ccccc1)c1nc(-c2ccco2)oc1NCc1ccco1
  2.6	4	?	4	0	-4
60) Cc1ccc(N2C(=O)C3C(C(=O)c4ccccc4)=NN(c4ccccc4)C3C2=O)cc1 (centres undefined)
  18	-1	-1	20	5	4

(list continues)
Every second line gives: TRPML1 agonist	TRPML1 blocker	TRPV1 potentiator	Six1-Eya2 inh	CtBP-E1A blk	D2 PAM
61) Cc1ccc2c(c1)N(CCC(=O)NC1CCCCC1)C(=O)CO2
  -0.5	18	?	3	-8	-12
62) CCOc1cccc2cc(C(=O)NCc3ccc(F)cc3)c(=N)oc12
  -0.1	0	7	-3	-2	-9
63) CC(C)c1ccc(C(=O)N2CCCC(c3cc(C(=O)NCc4ccccc4)no3)C2)cc1 (centres undefined)
  0.2	.	.	7	1	-3
64) O=S1(=O)CC(N2CCN(Cc3ccccc3F)CC2)CN1Cc1cn(Cc2cccc(Cl)c2)nn1 (centres undefined)
  -0.8	.	.	6	-10	.
65) O=C(c1cc2c(=O)n3ccccc3nc2s1)N1CCN(Cc2ccc3c(c2)OCO3)CC1
  -0.8	17	-8	-4	-4	-1
66) Cc1cc2[nH]c(=O)c(=O)[nH]c2cc1S(=O)(=O)N1CCN(c2ccccc2F)CC1
  -0.4&3.3	-2&2	4	4	.	2
67) CSc1nc2nc3c(cc2c(=O)n1-c1ccccc1C)COC(C)(C)C3
  0.5	5	-3	24	0	2
68) CC1=C(C(=O)OC(C)C)C(c2ccc(Cl)cc2)n2c(s/c(=C\c3ccc(OCC(=O)O)cc3)c2=O)=N1 (centres undefined)
  2.7	19	2	-7	.	-18
69) C=CCSc1nnc2n(CCc3ccccc3)c(=O)c3c4c(sc3n12)COC(C)(C)C4
  -1.2	53	-16	9	-8	-4
70) O=C(CN1C(=O)C2CCCCN2C(=O)c2ccccc21)N1CCCc2ccccc21 (centres undefined)
  -0.5	-4	1	-3	6	11
71) CC(=O)OCC(=O)Nc1ccc(N=Nc2ccccc2)cc1
  0.1	-12	-6	-24	-6	-9
72) O=C(NCCOC(=O)C1COc2ccccc2O1)C1COc2ccccc2O1 (centres undefined)
  -1.0	35	?	1	7	-9

Laid out differently: results already given.
# | mol | TRPML1 agonist | TRPML1 blocker | TRPV1 potentiator | Six1-Eya2 inh | CtBP-E1A blk | D2 PAM
70 | O=C(CN1C(=O)C2CCCCN2C(=O)c2ccccc21)N1CCCc2ccccc21 (centres undefined) | -0.5 | -4 | 1 | -3 | 6 | 11
61 | Cc1ccc2c(c1)N(CCC(=O)NC1CCCCC1)C(=O)CO2 | -0.5 | 18 | ? | 3 | -8 | -12
65 | O=C(c1cc2c(=O)n3ccccc3nc2s1)N1CCN(Cc2ccc3c(c2)OCO3)CC1 | -0.8 | 17 | -8 | -4 | -4 | -1
